Screening results: PubChem BioAssay, National Center for Advancing Translational Sciences (NCATS)
MARV entry inh: qHTS for inhibitors of binding or entry into cells for Marburg Virus. Potency, µM (series often up to 37.8 µM), for inactives: top-dose activity change, negative = inhibition, usual class: inhibitors. AID 540276, 2011. 300,000 tested, 1.8% active. Marburg virus pseudotyped entry inhibition, cell reporter; control for the full effect not named in the record; about a third of the inactives were read at about 46 µM; active = well fitted inhibition curve with a large enough effect; inconclusive = small, poorly fitted or top-dose-only effect, or effect the other way; inactive = flat fitted curve, though single readings scatter; tested in HEK293 cells; about a fifth of its hits are not listed in these tables; note: % is set by controls: 0 for no effect and ±100 for the full control effect; luciferase read-out
SARS PLpro yeast: qHTS of Yeast-based Assay for SARS-CoV PLP. S. cerevisiae expressing SARS-CoV PLpro, growth rescue; control for the full effect not named in the record. Potency, µM (top dose mostly 32.9 µM), for the others: at the highest dose activity, positive = growth rescue. 330,000 tested, 0.19% active; note: 0% is about no effect; nearly all actives have a fitted effect of over 55% in size; growth read by luminescence after 48 h
RE007 growth inh: qHTS Assay for Inhibitors of the HIV-1 protein Vpr; Potency, µM (top dose mostly 92.2 µM), for the others: at the highest dose activity change, negative = less growth; S. pombe RE007 Vpr strain, BacTiter-Glo ATP luminescence, 24 h; control for the full effect not named in the record; 360,000 tested, 0.21% active; active = well fitted falling curve with a large enough effect; inconclusive = small, poorly fitted or top-dose-only effect; inactive = no such curve, though single readings can be large or run the other way;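 note: % is set by controls: 0 for no effect and ±100 for the full control effect; nearly all actives have a fitted effect of over 50% in size; the assay follows cell death caused by Vpr and the record does not say whether a fall means rescue or toxicity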
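Fission yeast strain RE007, carrying one chromosomally integrated HIV-1 vpr copy, was seeded at OD 0.01 in PMG+AL medium with 23 nL pinned compound. After 24 h at 30 °C and 99% humidity, viability was read by BacTiter-Glo luminescence.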
Cruzain inh Det: qHTS Assay for Promiscuous and Specific Inhibitors of Cruzain (with detergent); Cruzipain (Trypanosoma cruzi), P25779; purified cruzain, Z-FR-AMC fluorescence, 0.01% Triton; Potency, µM, for the others: max response, negative = inhibition, usual class: inhibitors; 200,000 tested, 0.43% active; active = well fitted curve in the direction sought with a large enough effect; inconclusive = small, poorly fitted or top-dose-only effect, or another doubt; inactive = no such curve, though single readings can be large; an effect the other way counts as inactive or inconclusive;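 note: plate controls were neutral wells for no effect and buffer without enzyme for full effect; nearly all actives have a fitted effect of over 40% in size; top concentration of the series not given in the record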
Target sequence (P25779 123-467 limits assumed): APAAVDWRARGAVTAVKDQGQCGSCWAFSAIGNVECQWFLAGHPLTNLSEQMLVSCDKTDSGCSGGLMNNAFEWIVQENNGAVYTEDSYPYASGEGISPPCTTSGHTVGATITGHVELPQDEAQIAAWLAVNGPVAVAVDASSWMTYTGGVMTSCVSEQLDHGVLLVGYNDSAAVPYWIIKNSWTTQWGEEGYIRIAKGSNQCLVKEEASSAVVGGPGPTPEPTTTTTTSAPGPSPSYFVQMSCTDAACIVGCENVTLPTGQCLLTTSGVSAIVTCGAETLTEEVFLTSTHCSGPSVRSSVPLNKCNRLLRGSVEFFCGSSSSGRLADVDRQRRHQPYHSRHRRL
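15 min RT preincubation of 1.5 nM cruzain with compound, then 2 uM Z-FR-AMC added; kinetic AMC fluorescence, 60 s delta. Triton X-100 0.01%, pH 5.5.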
NS1 inh: qHTS Assay for Inhibitors of Influenza NS1 Protein Function; S. cerevisiae slowed by influenza A NS1, growth recovery by OD600; Potency, µM (series often up to 46.1 µM), without a hit: at the highest dose activity, positive = more growth; 270,000 tested, 0.4% active; AID 2326, 2010; note: actives are rising curves; nearly all actives have a fitted effect of over 50% in size
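OD600 was taken as the measure of yeast growth restored by compound in an NS1-expressing S. cerevisiae strain. Cells had been washed out of glucose medium and diluted 1:100 into galactose -URA medium, pH 6.0.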
Lassa entry inh: qHTS for Inhibitors of binding or entry into cells for Lassa Virus; Potency, µM (titrated, usually from 37.9 µM), inactives show top-dose activity change, negative = inhibition, usual class: inhibitors; 300,000 tested, 1.2% active; Lassa virus pseudotype entry inhibition, cell reporter; control for the full effect not named in the record; active means well fitted inhibition curve with a large enough effect; inconclusive means small, poorly fitted or top-dose-only effect, or effect the other way; inactive means flat fitted curve, though single readings scatter; tested in HEK293 cells; note: % is set by controls: 0 for no effect and ±100 for the full control effect; nearly all actives have a fitted effect of over 50% in size; luciferase read-out
2A StopGo: High Throughput Screening for Foot and Mouth Disease Virus Antivirals; human cells with a luciferase reporter of 2A StopGo recoding; control for the full effect not named in the record; 410,000 tested, 1.2% active; Potency, µM (titrated, usually from 57.9 µM), for the others: top-dose signal change, negative = less light; AID 1159524, 2015; active = well fitted falling curve with a large enough effect; inconclusive = small, poorly fitted or top-dose-only effect; inactive = no such curve, though single readings can be large or run the other way; tested in HEK293T cells; note: % is set by controls: 0 for no effect and ±100 for the full control effect; nearly all actives have a fitted effect of over 45% in size; luciferase light after 4 h
Cruzain inh noDet: qHTS Assay for Promiscuous and Specific Inhibitors of Cruzain (without detergent); Cruzipain (Trypanosoma cruzi), P25779; purified cruzain, Z-FR-AMC fluorescence, no detergent; Potency, µM, for the others: max response, negative = inhibition, hits mostly inhibitors; 200,000 tested, 2.3% active; AID 1476, 2009; active = well fitted curve in the direction sought with a large enough effect; inconclusive = small, poorly fitted or top-dose-only effect, or another doubt; inactive = no such curve, though single readings can be large; an effect the other way counts as inactive or inconclusive;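 note: plate controls were enzyme without inhibitor for no effect and buffer without enzyme for full effect; nearly all actives have a fitted effect of over 40% in size; top concentration of the series not given in the record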
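Detergent-free condition (0.00005% Triton X-100) in acetate buffer pH 5.5 with DTT. 1.5 nM enzyme and compound were pre-mixed 15 min, then 2 uM Z-FR-AMC substrate added; reaction progress from fluorescence change between first and third reads (60 s).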
* = called active by the depositor; ? = inconclusive; nt = not tested or not shown; & = joins results of further samples; [ ] = remark or other dose. Unless noted, calls come from the whole dose curve; as a rule, active means well fitted rising curve with a large enough effect; inconclusive means small, poorly fitted or top-dose-only effect; inactive means no such curve, though single readings can be large or run the other way. Potency is the fitted concentration of half-maximal effect.

Compound,MARV entry inh,Cruzain inh noDet,SARS PLpro yeast,Cruzain inh Det,2A StopGo,RE007 growth inh,NS1 inh,Lassa entry inh
CC1=CC(C)(C)NC(=S)N1C(C)c1ccccc1 (stereo unspecified),nt,nt,0%,nt,-27%,0%,7%,nt
Cn1c(N/N=C\c2cccc(O)c2)cc(=O)n(C)c1=O,-8%,3%,-1%,-2.4%,4%,36%,-4%,-2%
COc1ccc(OC)c(-c2nc3c(C#N)c[nH]n3c2NC2CCCCC2)c1,?,?,nt,-3.7%,-17%,nt,nt,-17%[46.1 µM]
C(=C\c1ccccc1)/C=N/Nc1nc(N2CCOCC2)nc(N2CCOCC2)n1,-28%,-4%,6%,-4.0%,-16%,-3%,8%,15%
COc1ccc(NC(=O)CN(C)S(=O)(=O)c2ccccc2)c([N+](=O)[O-])c1,22%,4%,-4%,-2.2%,25%,4%,-5%,0%
COc1ccc(Nc2nc(NC(C)(C)C)nc(N3CCOCC3)n2)c(OC)c1,13µM*,nt,-3%,nt,0%,21%,-7%,-7%
O=C(Nc1ccncc1)c1sc2ccccc2c1Cl,?,nt,-8%,nt,11%,?,nt,-20%
COc1nn(CC(=O)N2N=C(C)CC2(O)C(F)F)cc1[N+](=O)[O-] (stereo unspecified),-8%,4%,15%,0.1%,14%,-2%,10%,4%
COc1cc(Cl)c(C)cc1NC(=O)c1ccc(S(C)(=O)=O)cc1,nt,nt,-1%,nt,-21%,2%,-1%,nt
O=C(NNC(=S)Nc1ccccc1)c1cccc(Br)c1,18%,1%,11%,-0.1%,63%[activator],5%,-15%,?
COC(=O)C(C)Sc1nc(NCc2ccccc2)nc(N(C)C)n1 (stereo unspecified),9%[46.1 µM],nt,1%,nt,-13%,42%,nt,12%
Cc1ccccc1OCCn1c(CCNC(=O)C(C)C)nc2ccccc21,-8%,1%,0%,-4.1%,-21%,-1%,-13%,-1%
O=C(c1ccc2c(=O)n3c(nc2c1)CCCCC3)N1CCCCC1,2%[46.1 µM],nt,-2%,nt,6%,23%,5%,15%[46.1 µM]
Cc1ccc(-c2nnn(CC(=O)N(CC3CCCO3)C(C(=O)NC3CCCC3)c3ccc(O)cc3)n2)o1 (stereo unspecified),-3%,nt,0%,nt,-5%,-14%,0%,?
COc1ccc(-c2ccc(=O)n(CC(=O)Nc3ccc(C)cc3C)n2)cc1,nt,-1%,nt,-2.9%,-9%,nt,nt,17%[46.1 µM]
COc1ccc(C(=O)NC2CCN(S(=O)(=O)c3ccc(F)cc3)CC2)cc1,nt,nt,-1%,nt,-10%,-7%,16%,nt
O=C(c1ccco1)N1CCN(CCCCOc2cccc3ccccc23)CC1,?,-1%,1%,1.0%,-27%,8%,-20%,9%
CC1CCN(C(=O)C2Cc3ccccc3CN2S(=O)(=O)c2ccc(F)cc2)CC1 (stereo unspecified),?,-5%,-3%,5.1%,37%[activator],-10%,-38%,-15%
COc1c(F)c(F)c(C(=O)O)c(Nc2ccc(C)cc2C)c1F,-5%[46.1 µM],nt,0%,nt,-16%,2%,nt,-12%[46.1 µM]
CCCCNS(=O)(=O)c1ccc2nc(-c3cccnc3)cc(C(=O)NC(C)C)c2c1,16%,-12%&3%,-1%,1.4%&0.0%,61%&99%[activator],12%,22%,-7%[46.1 µM]
CCCc1nc(NC(=O)c2ccccc2)nc(NC(=O)c2ccccc2)n1,9%[46.1 µM],nt,1%,nt,-8%,-5%,-3%,6%[46.1 µM]
CCCCNCCCCOc1ccccc1,26%,4%,16%,2.6%,8%,5%,-4%,0%
Cc1ccc(-n2nc(C(=O)O)c(O)cc2=O)cc1,0%[46.1 µM],nt,1%,nt,9%,3%,4%,-3%[46.1 µM]
CC(Sc1cccc[n+]1[O-])C(=O)Nc1ccc(Oc2ccccc2)cc1 (stereo unspecified),?,nt,-1%,nt,-21%,2%,-2%,-13%
S=c1[nH]cnc2scc(-c3ccc(Br)cc3)c12,?,nt,?,nt,-20%,-1%,nt,-29%[46.1 µM]
Cc1nnc(NC(=O)c2ccc(S(=O)(=O)N(C)c3ccccc3)cc2)s1,-7%,nt,3%,nt,-13%,-11%,nt,2%
COc1ccc(Cn2c(C(=O)O)c(CNCCc3cc(OC)ccc3OC)c3ccc(C)cc32)cc1,nt,?,nt,-9.4%,-23%,nt,nt,?
Cn1c(=O)c2c(O)c([N+](=O)[O-])c(=O)n(C)c2n(C)c1=O,17%[46.1 µM],nt,-4%,nt,8%,0%,-3%,10%
Cc1ccc(-c2noc(-c3ccc(NCc4ccco4)c([N+](=O)[O-])c3)n2)cc1,8%[46.1 µM],-13%,nt,-5.1%,0%,nt,nt,6%[46.1 µM]
Cc1ccc(/C=C(\NC(=O)c2ccccc2)C(=O)N2CCCC2C(=O)O)cc1 (stereo unspecified),2%[46.1 µM],nt,1%,nt,23%,6%,nt,22%[46.1 µM]
O=C1C2CCCCN2C(=O)N1CCCN1CCN(c2ccc(F)cc2)CC1 (stereo unspecified),-7%[46.1 µM],nt,4%,nt,-8%,7%,-9%,4%[46.1 µM]
CCN(CC)S(=O)(=O)c1cccc(-c2n[nH]c(=S)n2/N=C/c2ccc(OC)cc2)c1,10%,4%,18%,-6.3%,?,4%,7%,-22%
CC(C)NC(=O)NC(=O)COC(=O)c1ccc(F)cc1F,16%,2%,-13%,-2.2%,-8%,7%,-5%,-4%
CCC(=O)NCCc1nc2cc(NC(=O)c3cccc([N+](=O)[O-])c3)ccc2n1C,?,nt,-2%,nt,60%[activator],0%,2%,1%
O=C(NCC1CCCO1)c1cccnc1Nc1ccccc1F (stereo unspecified),11%,-6%,0%,2.8%,5%,2%,-13%,15%
COc1ccc(-c2nc(C(=O)Nc3cccc(C(C)=O)c3)nn2-c2ccc(Cl)cc2)cc1,0%[46.1 µM],-20%,nt,-3.5%,-4%,nt,nt,7%[46.1 µM]
Oc1cccc(CN2CCCCC2)c1,24%,7%,16%,-0.6%,-4%,0%,24%,4%
O=C(CN1CCN(C2CCCCC2)CC1)c1ccc2cc[nH]c2c1,nt,8%,-4%,-6.0%,5%,-2%,-56%,nt
Cc1cccc(NC(=O)CCn2c(=O)oc3ccccc32)c1,-11%[46.1 µM],nt,1%,nt,3%,17%,2%,6%
CCN(CC)S(=O)(=O)c1ccc(/C=C/C(=O)OCC(=O)N(C(C)C)C(C)C)cc1,-3%[46.1 µM],nt,-1%,nt,?,-11%,0%,0%

Taken from above:
Cruzain inh Det with COc1ccc(OC)c(-c2nc3c(C#N)c[nH]n3c2NC2CCCCC2)c1 : -3.7%
RE007 growth inh with Oc1cccc(CN2CCCCC2)c1 : 0%

(more compounds)
Compound,MARV entry inh,Cruzain inh noDet,SARS PLpro yeast,Cruzain inh Det,2A StopGo,RE007 growth inh,NS1 inh,Lassa entry inh
CN1CCN(c2ccccc2NC(=O)c2ccc(-c3cccc([N+](=O)[O-])c3)o2)CC1,?,-7%,-29%,-10%,0%,25%,-7%,?
O=C1OCCN1CCNCc1cn(-c2ccc(F)cc2)nc1-c1ccccc1Cl,-44%[46.1 µM],nt,-1%,nt,-10%,-8%,1%,-27%[46.1 µM]
O=C(NCc1cccnc1)c1ccc(-c2ccccc2[N+](=O)[O-])o1,0%,-6%,0%,-4.8%,34%[activator],-11%,13%,4%
C=CCOc1cccc(CNn2cn[nH]c2=S)c1,3%,-8%,-3%,1.1%,nt,-1%,18%,10%
CCc1cccc(NC(=O)CCc2nc3cccnc3n2-c2ccccc2)c1,0%[46.1 µM],6%,nt,-1.9%,-19%,nt,nt,-7%[46.1 µM]
Cc1[nH]c(=O)[nH]c(=O)c1NS(=O)(=O)c1ccccc1,-25%,22%,9%,1.6%,-5%,7%,-1%,5%
CCCCNC(=O)c1cnn2c(C)c(Cc3c(C)cc(C)cc3C)c(C)nc12,nt,-1%,nt,4.2%,16µM*,nt,nt,?
O=C(Cc1ccc(Cl)cc1)Nc1ccc2oc(-c3ccccc3F)nc2c1,nt,7.9µM*,nt,-0.8%,-14%,nt,nt,4%[46.1 µM]
COc1ccc(C2C3=C(CC(C)(C)CC3=O)N(CC(=O)O)C3=C2C(=O)CC(C)(C)C3)cc1OC,nt,nt,-4%,nt,4%,0%,-7%,nt
O=C(NC1CCCCCCC1)c1ccc(Br)o1,2%[46.1 µM],nt,-4%,nt,17%,-1%,-32%,2%[46.1 µM]
Cc1nc(-c2ccccc2)sc1C1(C)CC(c2ccc([N+](=O)[O-])cc2)=NO1 (stereo unspecified),nt,nt,-2%,nt,-15%,15%,0%,nt
CCC(=O)N1CCc2cc(S(=O)(=O)NC(Cc3ccccc3)C(=O)NC3CCCCC3)ccc21 (stereo unspecified),?,-4%,?,-1.3%,27%,-4%,-6%,7%&-1%
COc1ccc(Cl)cc1NC(=O)CN1CCN(S(=O)(=O)N2CCCCC2)CC1,2%[46.1 µM],nt,0%,nt,-25%,0%,-23%,2%
